Rac1 GTP hydrolysis = MgcRacGAP GTPase-activating activity inhibitors, confirmation, biochemical, ADP Hunter fluorescence | one-dose inhibition, % at 30 µM; IC50 in µM for titrated hits | MgcRacGAP-stimulated Rac1 GTP hydrolysis, ADP Hunter fluorescence; higher % means a stronger effect; GST-tagged Rac1 F28L mutant substrate | AID 624330, 2012 | 0.6% of 340,000 active | Rac GTPase-activating protein 1 (Homo sapiens);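 active = first-screen hits whose inhibition reached a set limit at any dose in the follow-up dose series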;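 also: fluorescence reports GDP produced by GAP-driven GTP hydrolysis; strong numbers were not always called active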
GPR55 LPI antagonism = GPR55 antagonists blocking LPI-driven arrestin recruitment, primary screen, imaging, U2OS, beta-arrestin-GFP, LPI agonist (AID 2013) | one-dose inhibition, % at 10 µM; IC50 in µM for titrated hits | U2OS GPR55 beta-arrestin-GFP translocation imaging, LPI antagonism; higher % means a stronger effect | 0.13% of 290,000 active | G-protein coupled receptor 55 (Homo sapiens);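 active = spots per cell inhibited over 60%, with over 100 cells counted and total cytoplasm intensity under 500,000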;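 also: U2OS cells stably carrying GPR55 and arrestin-GFP stimulated by 5 µM LPI near EC80; imaged beta-arrestin-GFP aggregate spots per cell after agonist stimulation; plate controls were LPI-stimulated DMSO wells for no effect and DMSO wells without LPI for full effect; some results filed as inactive read as strong as hits; confirmed hits need IC50 under 10 µM and bright autofluorescent wells are also inconclusive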
GPR55 beta-arrestin = GPR55 agonists via beta-arrestin recruitment, primary screen, imaging, U2OS cells, beta-arrestin-GFP redistribution (AID 1961) | U2OS GPR55 beta-arrestin-GFP redistribution imaging; higher % means a stronger effect | G-protein coupled receptor 55 (Homo sapiens) | activation, % at 10 µM; hits with a dose series show EC50 in µM | 0.048% of 290,000 active;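 active = activation above 40% with more than 50 cells counted in the well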;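 also: U2OS osteosarcoma cells stably expressing GPR55 and beta-arrestin-GFP; plate controls were DMSO negative control for no effect and LPI positive control for full effect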
KOR beta-arrestin = KOR agonists, beta-arrestin recruitment, primary screen, cell-based, luminescence, uHTS (AID 1777). KOR beta-arrestin recruitment, luminescence; higher % means a stronger effect. activation, % at 10 µM, or EC50 in µM where a hit was titrated. Kappa-type opioid receptor (Homo sapiens). 0.02% of 280,000 active; in the data active = activation above about 50%, passing the limit was not always enough; also: a part of the inactive calls stands beside numbers as strong as those of hits
UTI89 phage lysis = inhibition of K1F phage lysis, E. coli UTI89, bacterial capsule biogenesis inhibitors, alamar blue (AID 488966); E. coli UTI89 K1F phage lysis, alamar blue, 2 h; higher % means a stronger effect; one-dose inhibition, % at 100 µM; IC50 in µM for titrated hits; 0.02% of 340,000 active;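 active = phage lysis inhibition, versus mean bacterial control, above a set limit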;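 also: capsule biogenesis inhibitors block K1F phage lysis so surviving cells raise fluorescence; higher fluorescence means more inhibition of phage lysis; actives were called in the ten point dose series up to 300 µM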
GPR35 arrestin U2OS = GPR35 antagonists blocking zaprinast-driven arrestin recruitment, primary screen, imaging, U2OS, beta-arrestin-GFP, zaprinast agonist (AID 2058). G-protein coupled receptor 35 (Homo sapiens). U2OS GPR35 beta-arrestin-GFP translocation imaging, zaprinast antagonism; higher % means a stronger effect. one-dose inhibition, % at 10 µM; IC50 in µM for titrated hits. 0.052% of 290,000 active;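 active = inhibition of at least 50% with at least 30 cells and total cytoplasm GFP at most 10,000,000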
NTR1 agonist = agonists of NTR1, primary screen, imaging, U2OS cells, beta-arrestin-GFP, high content (AID 493036); Neurotensin receptor type 1 (Homo sapiens), P30989; NTR1-U2OS beta-arrestin-GFP spot imaging, agonist mode; activation, % at 20 µM; 0.17% of 330,000 active;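 active = activation at or above 40% of the spot to cytoplasm intensity ratio, with at least 20 cells analyzed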;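 also: 0% = DMSO without peptide and 100% = 100 nM NTR1 peptide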
Target sequence (P30989 whole entry, looked up): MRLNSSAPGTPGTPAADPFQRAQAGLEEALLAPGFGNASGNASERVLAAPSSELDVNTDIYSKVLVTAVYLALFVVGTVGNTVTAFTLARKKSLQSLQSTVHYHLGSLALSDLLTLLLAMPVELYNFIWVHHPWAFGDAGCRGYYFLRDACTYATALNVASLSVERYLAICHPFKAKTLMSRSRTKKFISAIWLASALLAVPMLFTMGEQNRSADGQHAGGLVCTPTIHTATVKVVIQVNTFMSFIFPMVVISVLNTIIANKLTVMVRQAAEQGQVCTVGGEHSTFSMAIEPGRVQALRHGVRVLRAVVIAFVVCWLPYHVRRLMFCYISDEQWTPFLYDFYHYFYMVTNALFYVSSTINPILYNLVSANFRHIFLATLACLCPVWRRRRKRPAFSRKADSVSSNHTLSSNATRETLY
NTR1 agonist cell count 20 µM = recorded beside NTR1 agonist, whose call it bears; cell count; measured here: cell count, cytotoxicity flag
Starred values were filed as active, the others as inactive; i = inactive; nt = not tested or not shown; [ ] = another dose, or the depositor's remark. The list is partial, so the mix of outcomes need not match the whole.

SMILES	Rac1 GTP hydrolysis	GPR55 LPI antagonism	GPR55 beta-arrestin	KOR beta-arrestin	UTI89 phage lysis	GPR35 arrestin U2OS	NTR1 agonist	NTR1 agonist cell count 20 µM
Clc1ccc(OCc2cnc(Cl)s2)cc1	1%	7%	-0.1%	6.2%	-0.1%	6%	-1.0	48
COc1ccc(Cc2nc3ccc(S(=O)(=O)N4CCOCC4)cc3[nH]2)cc1OC	7%	3%	-0.1%	3.1%	4.8%	-2%	0.8	57
COC(=O)C1(S(=O)(=O)c2ccc(C)cc2)CCOCC1	-1%	4%	-0.1%	6.2%	1.4%	13%	0.4	55
CC1CCN(C2CCN(S(=O)(=O)c3ccc(F)cc3)CC2)CC1	32%	nt	-0.1%	2.4%	0.0%	-11%	-0.2	84
CCOC(=O)c1[nH]c2ccccc2c1NC(=O)c1nonc1C	-8%	22%	0.0%	1.9%	-0.3%	6%	-2.0	94
COc1ccc(C2=NN(C)C(=NCc3ccccc3)SC2)cc1	8%	21%	0.0%	-0.4%	9.5%	2%	5.7	69
O=C(Oc1c(Br)cc(C(=S)N2CCOCC2)cc1Br)c1ccc(Cl)cc1	3%	3%	-0.1%	-2.3%	i	11%	3.9	82
CCCCNC(=O)CC(=O)Nc1ccccc1C(=O)O	7%	12%	-0.1%	1.8%	3.7%	11%	-0.3	56
CCOC(=O)c1[nH]c(C)c(CN(CCc2ccccc2)C(=O)CCC(=O)O)c1C	-1%	11%	-0.1%	2.2%	0.6%	7%	-3.3	79
O=C(NC1CCS(=O)(=O)C1)c1c(NC(=O)C2COc3ccccc3O2)sc2c1CCCC2 (centres undefined)	0%	15%	-0.1%	1.5%	0.0%	-7%	3.2	60
Oc1[nH]c2ccccc2c1N=Nc1ccc(C(F)(F)F)cn1	-2%	4%	-0.1%	-3.2%	0.7%	-6%	2.9	60
CCS(=O)(=O)NCC(c1cccnc1)N1CCN(c2ccccc2F)CC1 (centres undefined)	12%	3%	-0.1%	1.0%	0.4%	19%	-0.9	51
CCOc1ccc(N2C(=O)CC(Sc3nc(-c4cccs4)cc(C(F)(F)F)c3C#N)C2=O)cc1 (centres undefined)	12%	0%	0.0%	3.0%	0.1%	11%	5.7	41
CC(C)C1=Nc2cccc3cccc(c23)N1	26µM*	-11%	0.0%	4.4%	0.4%	-11%	-2.4	96
O=S1(=O)CCN2C=Nc3sc4c(c3C2=N1)CCCC4	0%	9%	-0.1%	3.4%	0.8%	-17%	0.2	86
Nc1c(C(=O)NCC2CCCO2)c2nc3ccccc3nc2n1-c1ccccc1 (centres undefined)	5%	12%	-0.1%	5.9%	-0.4%	-6%	2.9	46
O=C(CSc1nc(-c2ccccc2)cs1)N1CCc2ccccc21	-1%	-5%	-0.1%	-1.5%	-0.2%	-3%	3.4	77
CCOc1ccc(/C=C/C(=O)c2c(O)c3ccccc3oc2=O)cc1	12%	-4%	0.0%	4.0%	0.1%	-6%	0.4	39
Cc1ccccc1OCC(=O)NNC(=O)Nc1ccc(Cl)cc1	5%	16%	0.0%	9.0%	0.3%	-12%	-3.3	76
O=C(Nc1nc2ccc(Cl)cc2s1)C1CCCO1 (centres undefined)	7%	5%	-0.1%	-7.1%	-0.3%	-7%	-2.0	33
CCCC(O)(CCC)C(=O)NNc1ccccc1	1%	4%	-0.1%	-0.9%	0.3%	-1%	-0.5	52
CCC(C)[C@H](NC(=O)NCc1ccccn1)C(=O)OC (some centres undefined)	3%	6%	-0.1%	3.2%	0.1%	-2%	-1.3	67
CCOc1ccc(N(CCC#N)S(=O)(=O)c2ccc(OC)cc2)cc1	-1%	10%	0.0%	-2.4%	6.2%	-6%	1.5	66
COC(=O)c1cn(NC(=O)C2CCC(C(C)(C)C)CC2)c(=O)c2ccccc12 (centres undefined)	4%	17%	-0.1%	-0.6%	-1.0%	0%	2.7	103
COc1ccc(NC(=O)c2ccc3c(=O)n(Cc4ccco4)c(=S)[nH]c3c2)c(OC)c1	8%	10%	-0.1%	2.4%	-1.0%	2%	-3.2	85

Arranged by molar mass (smallest number first): some entries from above
SMILES	Rac1 GTP hydrolysis	GPR55 LPI antagonism	GPR55 beta-arrestin	KOR beta-arrestin	UTI89 phage lysis	GPR35 arrestin U2OS	NTR1 agonist	NTR1 agonist cell count 20 µM
CCCC(O)(CCC)C(=O)NNc1ccccc1	1%	4%	-0.1%	-0.9%	0.3%	-1%	-0.5	52
CCCCNC(=O)CC(=O)Nc1ccccc1C(=O)O	7%	12%	-0.1%	1.8%	3.7%	11%	-0.3	56
O=C(Nc1nc2ccc(Cl)cc2s1)C1CCCO1 (centres undefined)	7%	5%	-0.1%	-7.1%	-0.3%	-7%	-2.0	33

(next part)
SMILES	Rac1 GTP hydrolysis	GPR55 LPI antagonism	GPR55 beta-arrestin	KOR beta-arrestin	UTI89 phage lysis	GPR35 arrestin U2OS	NTR1 agonist	NTR1 agonist cell count 20 µM
Cc1nc2nc(C)c(CCC(=O)NC(C)c3ccc4c(c3)OCCO4)c(C)n2n1 (centres undefined)	9%	-9%	0.5%	-0.9%	2.1%	7%	1.2	61
CS(=O)(=O)N1N=C(c2ccc(Br)cc2)CC1c1ccc2c(c1)OCO2 (centres undefined)	4%	0%	-0.1%	-4.8%	6.2%	21%	-1.7	64
CCOc1ccc(N2CC(C(=O)NC(C)C)CC2=O)cc1 (centres undefined)	-6%	-2%	0.1%	0.9%	2.6%	8%	-3.9	98
COCCN1CN=C(Nc2nc3ccccc3o2)NC1	7%	5%	-0.1%	1.1%	0.8%	-11%	-0.3	45
COc1ccc(N2CCc3c(C)nc4c(OC)cc(OC)cc4c32)c(OC)c1	17%	26%	0.2%	2.3%	-0.1%	-6%	10	79
CCC(C)NC(=O)C1CC(c2ccc(OC)cc2)=NO1 (centres undefined)	6%	12%	-0.1%	0.2%	6.0%	-6%	1.5	85
O=C(O)CCN=C1CCCc2ccccc2N1	7%	2%	0.0%	1.9%	0.0%	5%	-2.8	49
O=C(/C=C/c1ccccc1)N/C(=C\c1ccco1)C(=O)NCCO	4%	9%	-0.1%	-1.4%	3.0%	17%	-0.7	96
Cc1ccc(NC(=O)COc2ccc(S(=O)(=O)N3CCOCC3)cc2)cc1	4%	-6%	-0.1%	2.5%	8.6%	27%	1.2	52
COc1ccc(CCNC(=O)CCCCCN2C(=O)c3ccccc3C2=O)cc1	7%	-1%	0.3%	3.0%	4.8%	-3%	-1.6	82
Cc1[nH]nc(-c2ccc(OCc3cnn(-c4ccccc4)c3)cc2O)c1Oc1ccc(F)cc1	7%	8%	0.0%	-0.1%	-0.2%	12%	13	53
Cc1oc2ccc(NS(=O)(=O)c3ccc(C(C)(C)C)cc3)cc2c1C(=O)Nc1ccccc1	14%	12%	-0.1%	11%	0.0%	25%	14	64
COc1ccc(CCNC(=O)c2ccccc2NC(=O)c2ccco2)cc1OC	14%	17%	-2.3%	4.1%	0.0%	0%	-1.8	37
CCOc1ccccc1NC(=O)Nc1c(C)n(-c2ccccc2)c(=O)n1C	4%	-3%	-0.2%	-2.4%	-1.0%	10%	1.2	65
c1ccc(-c2nc(NCCCn3ccnc3)c3oc4ccccc4c3n2)cc1	11%	69%	-0.1%	2.9%	7.0%	12%	7.3	68
CN(C)c1ccc(/C=c2\sc3nc(-c4ccccc4)nn3c2=O)cc1	nt	46%	-2.3%	0.1%	nt	19%	-7.9	85
CCOC(=O)N1CCC(n2c(SCC(=O)c3ccccc3)nc3ccsc3c2=O)CC1	6%	27%	0.0%	2.2%	0.1%	-14%	26	62
CCC(C)C(NS(=O)(=O)c1ccc(C)cc1)C(=O)Oc1ccc2c3c(c(=O)oc2c1)CCC3 (centres undefined)	-2%	40%	0.3%	-0.9%	2.3%[50 µM]	-4%	8.4	59
CC(=O)N1CCN(Cc2nc3cc(NC(=O)c4ccccc4)ccc3n2C)CC1	9%	nt	0.6%	2.4%	0.7%	-5%	-0.4	65
Cc1cccc(NC(=S)NCc2ccccn2)c1	5%	16%	-0.1%	-4.0%	0.0%	4%	1.3	70
Cc1ccc(NC(=O)CN(Cc2ccccc2)S(C)(=O)=O)cc1C	5%	18%	0.2%	4.6%	7.4%	5%	0.0	61
COc1cc(/C=C(/NC(=O)c2ccccc2)C(=O)Nc2ccccc2)c([N+](=O)[O-])cc1OC	4%	6%	-0.1%	-3.6%	0.2%	-2%	-0.2	29
Cc1oc(C)c(C(=O)NCCCC(=O)O)c1C(=O)NCCCC(=O)O	8%	13%	0.0%	1.9%	-2.2%[50 µM]	16%	-0.4	59
Cc1c(Br)c([N+](=O)[O-])nn1C(C)C(=O)Nc1ccc2c(c1)OCO2 (centres undefined)	7%	9%	-0.1%	0.9%	0.0%	3%	1.3	52
Cc1cc(C)c(S(=O)(=O)NCC2CCC(C(=O)NCc3ccc4c(c3)OCO4)CC2)c(C)c1 (centres undefined)	-1%	16%	-0.1%	1.2%	4.4%	2%	7.1	52
SMILES	Rac1 GTP hydrolysis	GPR55 LPI antagonism	GPR55 beta-arrestin	KOR beta-arrestin	UTI89 phage lysis	GPR35 arrestin U2OS	NTR1 agonist	NTR1 agonist cell count 20 µM
Cc1cccc(CSCCNC(=O)CSCc2ccc([N+](=O)[O-])cc2)c1	5%	6%	-0.1%	-3.4%	1.3%	8%	-1.0	54
CCc1ccc(C(=O)c2oc3nc(C)cc(C)c3c2N)cc1	1%	3%	-0.1%	5.5%	-0.1%	10%	6.0	78
O=C(CCN1CCOCC1)Nc1ccccc1	7%	5%	-0.1%	-3.4%	0.3%	-11%	0.2	77
COc1ccc(NC2=Nc3cccc4cccc2c34)cc1OC	1%	nt	0.0%	0.9%	0.2%	10%	0.3	85
COc1ccc(CCN2CC(O)=C(c3nc(C)cs3)C2=N)cc1OC	4%	6%	-0.2%	2.9%	0.7%	-20%	3.5	60
Cc1nc(NC(=O)c2ccccc2)sc1-c1csc(Nc2cccc(F)c2)n1	nt	-2%	0.0%	1.2%	nt	-18%	-2.2	89
COc1ccc(NC(=O)C2(c3ccc(NC(=O)c4ccc(C)cc4)cc3)CCCC2)cc1	9%	-9%	0.2%	3.2%	2.8%	13%	0.2	67
CCn1c(CNc2ccc(OC)cc2)nnc1SCC(=O)N1CCCc2ccccc21	13%	-8%	0.2%	10%	-0.1%	5%	0.2	82
CN(C)c1cc[n+](CC(=O)Nc2cc(C(F)(F)F)ccc2Cl)cc1	2%	0%	0.1%	0.9%	0.3%[50 µM]	-9%	2.2	50
CC(C)Oc1ccc(/C(O)=C2/C(=O)C(=O)N(Cc3cccnc3)C2c2ccco2)cc1 (centres undefined)	1%	7%	-0.1%	0.5%	-3.8%	-2%	1.5	33
CCC(C)n1c(NC(=O)c2ccccc2)c(C#N)c2nc3ccccc3nc21 (centres undefined)	5%	-10%	0.5%	-0.6%	1.4%	-7%	7.2	49
CN1C(=O)/C(=C/c2ccccc2OCc2ccccc2F)NC1=S	7%	nt	-0.1%	-1.5%	0.5%	-10%	2.8	42
Cc1ccc(C(=O)OCn2ncc(Cl)c(Cl)c2=O)cc1	12%	35%	2.5%	3.8%	-0.5%	24%	1.2	41
COCCN(C(=O)C(C)C)c1nnc(-c2ccc(C)cc2)s1	6%	17%	0.2%	-2.7%	6.3%	-13%	-1.9	66
